Screening data: PubChem BioAssay, National Center for Advancing Translational Sciences (NCATS)
Rango dissoc inh – inhibition of RanGTP-driven Rango-importin beta dissociation. Biochemical FRET Rango-importin beta, RanGTP-induced dissociation. Potency, µM (doses to about 46.1 µM), inactives show at the highest dose activity change, negative = inhibition. hit rate 0.071% among 340,000; active means falling FRET ratio curve, often poorly fitted, with flat reads before Ran was added; inconclusive means other falling curves, or compound fluorescence or quenching; inactive means flat or rising ratio curve;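 further: potency means the concentration at half of the fitted maximal effect; % of control where 0% means no effect; nearly all actives have a fitted effect of over 45% in size; -100% = wells without RanGTP and RCC1; the record marks most hits as doubtful in a second field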
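Rango/importin beta premix (0.1/0.25 uM final), PBS + 1 mM DTT + 0.02% Tween-20 + 0.1% BSA; cpd 5 min RT; FRET pre-read; + RanGTP-RCC1 (0.6 uM Ran, 2 mM GTP, 0.2 uM RCC1); 45 min RT; FRET post-read, ex 430, em 486/530 nm.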
GLA inh pH 4.5 – blocks human alpha-galactosidase A at pH 4.5; AID 1467; 230,000 tested, under 10 active; purified enzyme, 4-MU-alpha-Gal fluorescence, pH 4.5; activity change, negative = inhibition, % at 105 µM; P06280; inconclusive = small, poorly fitted or top-dose-only inhibition, or a rising curve; inactive = flat fitted curve, though single readings scatter; no compound was filed as active;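 further: 0% = full activity with enzyme and -100% = basal without enzyme; dose as in the result columns while the protocol names 77 µM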
Rango-impB inh – Rango-importin beta binding inhibition; Q14974; Rango CFP/YFP FRET sensor + importin beta, 45 min; Potency, µM (doses to about 92.2 µM), without a hit: at the highest dose inhibition of complex formation; hit rate 0.031% among 340,000; AID 540263; active = rising FRET ratio curve, often small or poorly fitted; inconclusive = mostly compound fluorescence or quenching in the first reads; inactive = flat curves in all reads;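 further: potency means the concentration at half of the fitted maximal effect; 0% = DMSO wells and 100% = buffer wells lacking importin beta; nearly all actives have a fitted effect of over 15% in size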
Target sequence (Q14974 whole entry, looked up): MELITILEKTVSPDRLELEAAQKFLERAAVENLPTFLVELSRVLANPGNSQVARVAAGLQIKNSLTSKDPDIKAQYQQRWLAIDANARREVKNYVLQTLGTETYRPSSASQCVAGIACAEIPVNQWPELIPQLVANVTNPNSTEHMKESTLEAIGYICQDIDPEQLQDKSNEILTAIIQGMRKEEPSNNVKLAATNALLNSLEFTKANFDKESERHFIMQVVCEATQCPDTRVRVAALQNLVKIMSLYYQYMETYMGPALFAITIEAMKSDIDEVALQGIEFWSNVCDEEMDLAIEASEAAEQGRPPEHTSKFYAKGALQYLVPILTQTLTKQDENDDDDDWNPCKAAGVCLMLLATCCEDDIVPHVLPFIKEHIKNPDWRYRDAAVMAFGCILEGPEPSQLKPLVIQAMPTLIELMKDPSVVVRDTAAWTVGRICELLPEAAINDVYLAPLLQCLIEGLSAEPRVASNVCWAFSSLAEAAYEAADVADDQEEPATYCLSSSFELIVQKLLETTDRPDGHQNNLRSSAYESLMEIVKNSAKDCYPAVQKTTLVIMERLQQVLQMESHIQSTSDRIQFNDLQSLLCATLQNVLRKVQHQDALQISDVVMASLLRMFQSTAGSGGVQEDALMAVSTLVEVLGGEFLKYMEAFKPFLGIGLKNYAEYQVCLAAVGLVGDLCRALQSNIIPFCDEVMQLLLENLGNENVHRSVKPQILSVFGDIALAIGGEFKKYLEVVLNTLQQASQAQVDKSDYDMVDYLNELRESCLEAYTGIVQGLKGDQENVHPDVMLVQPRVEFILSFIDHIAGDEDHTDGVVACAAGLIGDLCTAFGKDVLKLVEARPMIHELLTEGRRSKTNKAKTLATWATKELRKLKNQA
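FRET biosensor Rango (snurportin 1 IBB between N-terminal EYFP and C-terminal Cerulean), 50 nM in PBS/1 mM DTT/0.02% Tween-20/0.1% BSA, preincubated 5 min RT with compound; 0.125 microM importin beta added, 45 min RT, CFP/YFP FRET ratio read.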
miR-21 reporter – miR-21 reporter, rising signal; 340,000 tested, under 10 active; AID 2288; HeLa miR-21 FLuc reporter, luciferase, 48 h; Potency, µM (top dose mostly 38.3 µM), for inactives: top-dose reporter change, positive = more light; active = well fitted rising curve with a large enough effect; inconclusive = small, poorly fitted or top-dose-only effect; inactive = no such curve, though single readings can be large or run the other way;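 further: % of control where 0% means no effect; miR-21 action dims this reporter so a rising signal means less miR-21 action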
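HeLa miR-21-FLuc reporter line, endogenous miR-21; 2000 cells/well in DMEM/10% FBS; compound titration up to ~40uM final, 48 h, 37 degree Celsius; luciferase detection reagent, 15 min lysis, CCD luminescence.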
The depositor's hits bear a star; ? = inconclusive; / = not tested or not shown; & = joins results of further samples.

SMILES	Rango dissoc inh	GLA inh pH 4.5	Rango-impB inh	miR-21 reporter
CCOC(=O)C1=NNC2(CC(=O)N(c3cccc(C)c3)C2=O)C1 (stereo not given)	40%	6	-1.9%	-2%
COc1cccc(/C=N/n2c(C3CCCCC3)n[nH]c2=S)c1	6%	/	-1.3%	6%
Cc1ccc(NC(=O)COC(=O)[C@@H]2CCCN2C(=O)c2cccs2)cc1S(=O)(=O)N(C)C	-9%	-1	0.2%	-1%
CCCc1nnc(SCCSc2nnc(CCC)n2N)n1N	14%	-5	-4.9%	-3%
CCn1cc(CN2CCC(C(=O)Nc3cccc(-c4cccc(Cl)c4)c3)CC2)c(C)n1	10%	/	6.2%	?
CCOC(=O)C1CCN(C(=O)c2cccnc2Oc2ccc(Cl)cc2)CC1	29%	0	-2.1%	-9%
CCOc1ccc(S(=O)(=O)NCc2csc(C)n2)cc1	-29%	2	0.4%	0%
O=C(C=Cc1cccs1)c1ccccc1	-12%	/	-4.6%	/
Cc1cc(C)cc(Oc2ccccc2/C=C\C(=O)O)c1	11%	-2	?	0%
CCCc1cc(=O)[nH]c(SCC(=O)N2CCN(S(=O)(=O)c3ccc4ccccc4c3)CC2)n1	-1%	1	3.2%	-2%
Cc1ccc(C)c(N2CCN(S(=O)(=O)c3cn(C)cn3)CC2)c1	-24%	/	3.5%	-13%
CCCCN(CC)S(=O)(=O)c1ccc(C(=O)Nc2nnc(-c3cccs3)o2)cc1	-6%	0	-0.9%	?
CCNc1nc(C)c(CN(C(C)=O)c2ccccc2)nc1C#N	-14%	22	?	-12%
O=C(OCc1ccccc1)c1cn(-c2ccccc2)nc1-c1ccncc1	2%	1	0.8%	-12%
COc1ccc(CCN(C)CC(O)COc2ccc(C(C)=O)cc2OC)cc1OC (stereo not given)	1%	/	0.2%	-5%
CCCn1c(N)c(N(CCOC)C(=O)c2cc(C)cc(C)c2)c(=O)[nH]c1=O	-9%	/	2.4%	4%
CC(Oc1ccc2cc(-c3ccccc3)c(=O)oc2c1)C(=O)NCC1CCC(C(=O)O)CC1 (stereo not given)	-19%	/	0.0%	-12%
Clc1ccc(N2N=C(c3cccs3)CC2c2ccco2)cc1 (stereo not given)	?	?	?	-16%
Cc1ccc(S(=O)(=O)N2CCC(C(=O)NCCCN3CCOCC3)CC2)cc1	3%	/	4.3%	/
Fc1ccccc1NC(=S)NCc1ccc2c(c1)OCO2	3%	4	-0.4%	-20%
CCc1cc2c(N3CCN(c4ccccc4)CC3)ncnc2s1	0%	4	0.0%	30%
CN(C)S(=O)(=O)N1CCCN(S(=O)(=O)N(C)C)CC1	-2%	1	-1.2%	3%
COc1ccc(CCN2C(=O)N[C@@H](C(C)C)C2=O)cc1	5%	/	-2.5%	-5%
CC(C)(C)C(=O)NC(=S)NNC(=O)c1sc2ccccc2c1Cl	19%	-6	1.9%	-14%
CCC(C)Sc1ccc([C@H]2N[C@@](C)(C(=O)OC)[C@H]3C(=O)N(CC)C(=O)[C@@H]23)cc1 (stereo not given in full)	-8%	/	-2.0%	/
CCOC(=O)c1c(CN2CCN(Cc3ccccc3)CC2)n(C)c2cc(Br)c(OC)cc12	-3%	-7	-1.0%	-4%
Cc1nn(C)c(=S)n1-c1ccc(Cl)cc1	-12%	13	1.8%	0%
CC(=O)C1=C(O)C(=O)N(c2ccc(C)cc2)C1c1ccccn1 (stereo not given)	-1%	6	-1.0%	-20%
Cc1ccc(NC(=O)C2CCCN(S(=O)(=O)c3cccs3)C2)cc1 (stereo not given)	-15%	-5	-0.2%	10%
COc1ccc(-n2nnc3c(=O)n(CC(=O)Nc4ccc5c(c4)OCCO5)cnc32)cc1OC	-3%	/	-0.1%	4%
CCN(CC)C(=O)Oc1cc(COC)nc(-c2ccccc2)n1	-13%	4	8.1%	0%
COc1ccccc1CCNC(=O)C1CCC(=O)N(C2CC2)C1 (stereo not given)	-1%	/	0.0%	-4%
CC(=O)c1cccc(N(C(=O)c2ccccn2)C(C(=O)NC2CCCCC2)c2ccccc2)c1 (stereo not given)	6%	/	0.5%	0%
Cc1nnc2n(C3CCCCC3)c(=O)c3c4c(sc3n12)COC(C)(C)C4	9%	1	-0.1%	-9%
O=C(COc1ccc(Cl)cc1Cl)Nc1cccnc1	4%	-7	4.4%	-44%
O=C(NC(=S)NNC(=O)c1cccs1)c1ccco1	0%	-6	-1.8%	-3%
O=C(Cn1cnc2ccccc2c1=O)NCc1ccc2c(c1)OCO2	35%	8	-0.3%	-2%
Cc1cc2c(OCC(O)CNC3CCCCC3)cccc2[nH]1 (stereo not given)	-15%	0	-0.7%	-6%
Cc1cccc(Oc2ncnc(N)c2[N+](=O)[O-])c1	7%	-3	2.6%	-6%
CCc1c(C(C)S(=O)(=O)c2ccc(C)cc2)[nH]c(=O)n1-c1ccc(C)cc1 (stereo not given)	-4%	6	-1.1%	2%

A run of entries taken from the entries so far, for reference:
SMILES	Rango dissoc inh	GLA inh pH 4.5	Rango-impB inh	miR-21 reporter
CCC(C)Sc1ccc([C@H]2N[C@@](C)(C(=O)OC)[C@H]3C(=O)N(CC)C(=O)[C@@H]23)cc1 (stereo not given in full)	-8%	/	-2.0%	/
CCOC(=O)c1c(CN2CCN(Cc3ccccc3)CC2)n(C)c2cc(Br)c(OC)cc12	-3%	-7	-1.0%	-4%
Cc1nn(C)c(=S)n1-c1ccc(Cl)cc1	-12%	13	1.8%	0%
CC(=O)C1=C(O)C(=O)N(c2ccc(C)cc2)C1c1ccccn1 (stereo not given)	-1%	6	-1.0%	-20%
Cc1ccc(NC(=O)C2CCCN(S(=O)(=O)c3cccs3)C2)cc1 (stereo not given)	-15%	-5	-0.2%	10%
COc1ccc(-n2nnc3c(=O)n(CC(=O)Nc4ccc5c(c4)OCCO5)cnc32)cc1OC	-3%	/	-0.1%	4%
CCN(CC)C(=O)Oc1cc(COC)nc(-c2ccccc2)n1	-13%	4	8.1%	0%
COc1ccccc1CCNC(=O)C1CCC(=O)N(C2CC2)C1 (stereo not given)	-1%	/	0.0%	-4%
CC(=O)c1cccc(N(C(=O)c2ccccn2)C(C(=O)NC2CCCCC2)c2ccccc2)c1 (stereo not given)	6%	/	0.5%	0%
Cc1nnc2n(C3CCCCC3)c(=O)c3c4c(sc3n12)COC(C)(C)C4	9%	1	-0.1%	-9%
O=C(COc1ccc(Cl)cc1Cl)Nc1cccnc1	4%	-7	4.4%	-44%
O=C(NC(=S)NNC(=O)c1cccs1)c1ccco1	0%	-6	-1.8%	-3%
O=C(Cn1cnc2ccccc2c1=O)NCc1ccc2c(c1)OCO2	35%	8	-0.3%	-2%
Cc1cc2c(OCC(O)CNC3CCCCC3)cccc2[nH]1 (stereo not given)	-15%	0	-0.7%	-6%
Cc1cccc(Oc2ncnc(N)c2[N+](=O)[O-])c1	7%	-3	2.6%	-6%
CCc1c(C(C)S(=O)(=O)c2ccc(C)cc2)[nH]c(=O)n1-c1ccc(C)cc1 (stereo not given)	-4%	6	-1.1%	2%

New compounds follow:
SMILES	Rango dissoc inh	GLA inh pH 4.5	Rango-impB inh	miR-21 reporter
COc1ccc(-c2nsc3c(N4CCCC4)ncnc23)cc1	-5%	0	0.8%	-55%
N#CCCn1cc(C=C(C#N)C#N)c(-c2ccc(Cl)cc2)n1	-2%	-3	-0.1%	-1%
Cc1cc(C)cc(N(CC(=O)N2CCCC2)S(C)(=O)=O)c1	8%	/	-2.1%	0%
CCCC(=O)N=C1SC2CS(=O)(=O)CC2N1c1ccc(CC)cc1 (stereo not given)	14%	-12	0.4%	0%
CC(C)Cn1c(=O)n(C)c(=O)c2[nH]cnc21	2%	-6&-7&3&4	1.2%	-16%
O=C(Nc1ccc2[nH]ncc2c1)C1CCC1	21%	/	?	3%
COCCNC(=O)c1ccc(C2SCC(=O)N2Cc2ccco2)cc1 (stereo not given)	-4%	0	3.8%	3%
COc1ccc(NC(=O)C(NC(C)=O)C(=O)NCc2ccccc2)cc1 (stereo not given)	-4%	3	4.7%	-1%
COc1ccc(C=CC(=O)C=CC=Cc2ccccc2)cc1	14%	/	2.5%	/
Cc1ccc(NC(=S)Nc2ncccc2C)c(C)c1	0%	3	3.8%	-27%
OC[C@@H](O)[C@@H](O)[C@H](O)[C@@H](O)CO	4%	/	5.5%	/
O=C(COc1ccc(Cl)c(Cl)c1)NN1C(=O)C2C(C1=O)C1C=CC2C12CC2 (stereo not given)	-11%	11	0.8%	-3%
CCCC1c2ccsc2CCN1C(=S)NC (stereo not given)	-10%	1	-2.4%	-1%
COc1cccc(OCc2nn3c(=O)c(-c4ccccc4)nnc3s2)c1	-1%	/	-1.8%	-4%
CCOC(=O)c1cc(C#N)c(N2CCNCC2)nc1C(F)(F)F	-1%	-3	-2.2%	-1%
CC(C)c1ccc(S(=O)(=O)Nc2ccc(N3CCOCC3)cc2)cc1	5%	/	4.6%	0%
CC(C)OCCCNC(=O)CN1CCN(Cc2ccc(Cl)cc2)C1=O	1%	/	-5.6%	0%
Cc1ccc2c(CSc3nnc(C4CC4)n3N)cc(=O)oc2c1	-9%	-4	2.6%	-8%
Cc1sc2nc(C(C)C)nc(SCC(=O)NCc3ccco3)c2c1C	-2%	4	3.0%	-14%
CC1CCN(C(=O)C2CCC(C)(C(=O)O)C2(C)C)CC1 (stereo not given)	30%	4	2.7%	1%
CCOC(=O)N1CCN(C(=O)CN(c2ccc(Cl)c(C(F)(F)F)c2)S(C)(=O)=O)CC1	-10%	2	-1.0%	-3%
Cc1cccn2c(=O)c(/C=C(\C#N)C(N)=O)c(N3CCCCCC3)nc12	?	/	?	-6%
O=C(Cn1nnc(-c2ccc(Cl)cc2)n1)NC1CC2CCC1C2 (stereo not given)	16%	4	0.1%	-1%
COc1ccc(C(=O)NNC(=O)c2cccc3ccccc23)cc1	1%	/	0.7%	/
O=C(COc1ccccc1)NC(NC(=S)Nc1ccccc1O)C(Cl)(Cl)Cl (stereo not given)	-4%	2	-2.8%	19%
CCOc1cc(N2CCOCC2)c(OCC)cc1NC(=O)CN1C(=O)NC(C)(c2ccc(OC)cc2)C1=O (stereo not given)	-3%	/	5.0%	/
O=C(Cn1cccc1C(=O)c1ccccc1)NCCc1ccc(Cl)cc1	-12%	/	0.0%	-1%
CC(C)C(=O)NCc1cc(-c2ccccc2)no1	11%	2	-1.2%	-8%
O=C(COC(=O)COc1ccc(Br)cc1)NCc1ccccc1	-6%	/	?	/
CC(OC(=O)CSc1ccccc1)C(=O)NC1CCCCC1C (stereo not given)	28%	/	1.2%	/
C/C(=N\NC(=O)c1nnn(-c2nonc2N)c1C(C)C)c1cc(C)sc1C	-4%	/	0.8%	-1%
C=CCSc1ncc(C(=O)OCC)c(N)n1	-17%	1	4.3%	-61%
O=C(COC(=O)c1ccccn1)Nc1ccccc1Cl	-14%	-4	-4.6%	5%
COc1ccccc1CC(=O)NC1CCN(Cc2ccccc2)CC1	7%	/	-4.9%	-1%
Cc1ccc(OCC(=O)Oc2cccc(C)c2C)cc1	-8%	/	2.6%	-1%
Cc1cc2cc(C(c3nnnn3C(C)(C)C)N(Cc3ccco3)CC3CCCO3)c(=O)[nH]c2cc1C (stereo not given)	-15%	3	-2.9%	1%
CCC(C)Sc1nc2c(cnn2-c2ccccc2)c(=O)[nH]1 (stereo not given)	-5%	7	-4.1%	-15%
CCCC(=O)Nc1ccccc1-c1nnc(SCC)[nH]c1=O	2%	-7	-2.4%	-1%
Cc1sc2ncn(CC(=O)NCCCC(=O)N3CCN(c4ccccc4)CC3)c(=O)c2c1C	12%	-11	-3.1%	-2%
CSc1cccc(NC(=O)C2CCN(S(=O)(=O)c3ccc4c(c3)NC(=O)CO4)CC2)c1	-6%	/	0.0%	20%
CCC(CO)NCc1cc(OC)c(OCC(=O)NCCc2ccccc2)cc1Br (stereo not given)	-20%	-2	-0.4%	-3%
Cc1ccc(Sc2cnccc2C#N)cc1	15%	/	-0.9%	-5%
COc1cc(OC)c(C(=O)O/N=C(\N)c2ccccn2)cc1OC	14%	/	1.2%	-34%

This is a subset, so the mix of outcomes need not match the whole.
